# Screening data from PubChem BioAssay.
# GALR2 agonist: agonists of human galanin receptor 2 (GALR2); GALR2-expressing cells, agonist activation read-out; AID 803; 140,000 compounds, 0.48% hits; activation, %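 (tested at 5 µM)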;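 active = above mean plus 3 SD of all compounds, about 5% in these data, not always enough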;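 note: 0% = vehicle buffer wells and 100% = reference agonist at full effect; tested in CHO reporter cells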
# Target sequence (O43603 whole entry, looked up): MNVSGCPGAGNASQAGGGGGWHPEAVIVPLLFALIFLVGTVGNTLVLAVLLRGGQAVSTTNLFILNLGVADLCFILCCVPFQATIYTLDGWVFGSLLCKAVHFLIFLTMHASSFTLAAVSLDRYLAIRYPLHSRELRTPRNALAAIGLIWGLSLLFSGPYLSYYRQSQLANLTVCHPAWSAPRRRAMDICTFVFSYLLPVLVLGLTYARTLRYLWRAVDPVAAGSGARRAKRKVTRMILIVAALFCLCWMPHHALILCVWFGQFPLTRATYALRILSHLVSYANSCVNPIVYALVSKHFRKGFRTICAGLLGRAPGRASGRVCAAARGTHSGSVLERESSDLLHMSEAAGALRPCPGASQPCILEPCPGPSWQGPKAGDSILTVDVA
# RGS16-Gao: modulates binding between human RGS16 and Galphao; bead-based flow cytometry RGS16-Galphao binding, fluorescence; actives lie on both sides; binding response (% of control), % at 10 µM; 220,000 compounds, 0.38% hits; AID 1441; O15492+P09471;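 active = below 25% or above 175%, edge rows of some plates excepted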;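 note: Galphao activated by GDP with aluminum fluoride before binding; 100% = wells without compound and 0% = beads without RGS; some results beyond the cut were filed as inactive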
# Target sequence (O15492 whole entry, looked up): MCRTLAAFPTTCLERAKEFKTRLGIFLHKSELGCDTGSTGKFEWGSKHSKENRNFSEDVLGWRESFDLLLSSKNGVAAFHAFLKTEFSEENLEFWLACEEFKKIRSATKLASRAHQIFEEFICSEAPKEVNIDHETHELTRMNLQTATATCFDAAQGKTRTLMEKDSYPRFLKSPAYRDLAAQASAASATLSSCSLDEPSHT
# Target sequence (P09471 whole entry, looked up): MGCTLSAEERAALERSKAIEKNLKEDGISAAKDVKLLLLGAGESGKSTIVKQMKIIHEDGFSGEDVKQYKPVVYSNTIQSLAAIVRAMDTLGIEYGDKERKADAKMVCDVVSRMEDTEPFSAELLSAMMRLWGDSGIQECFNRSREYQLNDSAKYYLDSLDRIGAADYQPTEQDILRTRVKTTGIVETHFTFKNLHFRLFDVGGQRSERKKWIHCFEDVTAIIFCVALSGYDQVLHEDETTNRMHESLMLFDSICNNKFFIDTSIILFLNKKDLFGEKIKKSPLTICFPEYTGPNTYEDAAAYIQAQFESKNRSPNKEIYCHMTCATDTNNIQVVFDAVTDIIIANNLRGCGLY
# PKD1 kinase inh: inhibitors of human PKD1 kinase. inhibition, %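 (about 10 µM by stock and volumes)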. 200,000 compounds, 0.056% hits. Q15139. PKD1 kinase fluorescence polarization assay;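 active = inhibition of 50% or more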;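 note: controls were vehicle for no effect and a reference inhibitor for full effect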
# INS promoter inh: TRM-6 insulin promoter activity inhibition | TRM-6 cells (human fetal islet line), insulin promoter-eGFP reporter, imaging; reporter expression induced with tamoxifen | inhibition, % at 2 µM | 130,000 compounds, 0.9% hits;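 active = inhibition above the mean plus 3 SD, with well images judged a real hit on visual review, cut at about 60% in these data, passing the limit was not always enough; inconclusive = inhibition over the cutoff but images rejected on review; inactive = inhibition not above the cutoff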
# HSV augment: increases HSV replication in cells. HSV replication augmentation in cells, fold increase. maximum fold increase. 220,000 compounds, 0.005% hits. AID 1956;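 active = peak rise of 1.5-fold or more in the series; inconclusive = self-fluorescent or not available for retest; tested in PC3 cells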;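 note: first round at 10 µM; read as green reporter fluorescence; hits show the peak of a series up to 25 µM; 1 = signal of infected wells without compound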
# INS promoter inh cell count: second read-out of INS promoter inh, no call of its own (marks repeat the call); normalized cell count, %; measured here: cell count, toxicity; reference of the scale not given here;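 cells exposed to compound for 48 h; stained nuclei by imaging scaled within each plate; lower means fewer cells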
# HSV augment primary fold: further read-out of HSV augment, marked with its call; fold increase; compound at 10 µM; measured here: primary screen fold increase 10 uM; tested in PC3 cells;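 GFP signal in the first replicate; 1 = infected wells without compound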
# * marks the source's active call; other numbers are inactive results; i = inactive; ? = inconclusive; . = not tested or not shown.
SMILES,GALR2 agonist,RGS16-Gao,PKD1 kinase inh,INS promoter inh,INS promoter inh cell count,HSV augment,HSV augment primary fold
COc1ccccc1N1CCN(C(=O)c2cc(C)oc2C)CC1,.,98,-7,.,.,i,0.99
COc1ccc(-n2ccsc2=S)cc1,-1.3,102,-7,.,.,i,0.83
COc1ccc(N2C(=O)CCC(C(C)=O)=C2C)cc1,-1.0,105,-14,.,.,i,0.94
CC(C)CNC(=O)c1cccc(NC(=O)Cc2ccc(Br)cc2)c1,-0.1,93,9,-155,201,i,1
COc1ccccc1N1CCN(c2ncnc3c2oc2ccccc23)CC1,0.3,100,2,.,.,i,0.92
O=C(O)CCn1cc(/C=N/O)c(-c2cccc([N+](=O)[O-])c2)n1,.,102,2,.,.,i,1.1
CCOC(=O)c1csc(NC(=O)c2cc(OC)c(OC)c(OC)c2)n1,-0.3,102,0,.,.,i,1
O=c1cc(O)nc(SCc2ccccc2)[nH]1,-1.5,104,-7,i,32,i,0.84
Cc1cc2c(C)nc(N/N=C/c3ccc(F)cc3)nc2o1,-1.6,103,-10,0,101,i,1
COC(=O)N/N=C/c1ccccc1OCc1ccccc1,-1.5,104,-6,-25,93,i,0.93
O=C(Oc1cc(=O)n2ccccc2n1)c1ccccc1,-1.1,104,-8,-33,114,i,0.92
CC(C)(C)NC(=O)/C(=C\c1ccco1)NC(=O)c1cccs1,0.1,107,-5,-37,73,i,0.89
O=C(NC1CCCC1)C(c1cccnc1)N(CCc1ccccc1)C(=O)c1ccco1 (stereo not drawn),.,107,-6,.,.,i,0.93
Nc1ccc(Oc2ccc([N+](=O)[O-])cc2[N+](=O)[O-])cc1,-0.3,45,-2,-23,156,i,0.88
Cc1ccc(NC2c3ncccc3C(=O)N2C2CCCCC2)cc1C (stereo not drawn),-2.6,106,-2,-15,129,i,0.85
CCOc1ccc(NS(=O)(=O)c2cc(NC(=O)c3cccc(C)c3)ccc2Cl)cc1,-1.6,102,1,.,.,i,0.84
CCOc1ccc(C(=O)/C=C/c2ccc(SC)cc2)cc1,-2.5,104,5,.,.,i,1.1
Cc1cccc(-n2ncc3c(NCCCn4ccnc4)ncnc32)c1,-2.5,170,-2,.,.,i,0.87
Cc1cc(OCC(=O)N2CCOCC2)ccc1[N+](=O)[O-],.,99,.,.,.,i,1.1
NC(=O)c1nsc(C(=O)N(c2ccc(Cl)cc2)C(C(=O)NCC2CCCO2)c2cccs2)c1N (stereo not drawn),.,34,-1,.,.,i,1
O=S(=O)(NC1=NCCC1)c1cccs1,-2.4,101,-9,25,106,i,0.97
Cc1cc([N+](=O)[O-])nn1CC(=O)Nc1ccc(Cl)cn1,.,67,-2,.,.,i,0.95
CCN(c1ccccc1)P(=O)(Nc1ccccc1)Nc1ccccc1,.,98,.,.,.,i,1.1
O=C(C1=C[C@@H](c2ccc(Br)cc2)C[C@@H](OCc2ccc(CO)cc2)O1)N1CCN(Cc2ccc3c(c2)OCO3)CC1,.,109,11,.,.,i,0.99
COCCNC(=O)C(=O)NCC1OCCN1C(=O)c1ccc(Cl)cc1 (stereo not drawn),-0.6,.,-3,19,105,i,0.9
SMILES,GALR2 agonist,RGS16-Gao,PKD1 kinase inh,INS promoter inh,INS promoter inh cell count,HSV augment,HSV augment primary fold
CCOC(=O)C1(Cc2ccc(Cl)cc2)CCN(Cc2nccn2CC)CC1,.,101,-2,.,.,i,0.92
COc1cc(NS(=O)(=O)c2ccc(NC(=O)/C=C/c3ccc([N+](=O)[O-])cc3)cc2)ncn1,.,99,7,27,104,i,0.81
Clc1ccc(N=c2ssnc2Cl)cc1,-0.3,85,-9,62,128,i,0.95
COc1cccc(C(=O)c2c[nH]c(C(=O)NCCCN(C)C)c2)c1,.,100,-10,-14,70,i,0.9
O=C(NCCc1nc2ccccc2[nH]1)/C(=C/c1ccc2c(c1)OCO2)NC(=O)c1ccccc1,-1.2,71,5,-47,69,i,1.1
O=C(COC(=O)Cc1cccs1)Nc1ccc(F)c(F)c1F,-2.3,103,-8,7,123,i,0.95
Cc1ccc(NC(=O)CSc2nnc(CSc3nc(C)cc(C)n3)n2Cc2ccco2)c(C)c1,0.8,97,2,4,157,i,0.88
Cc1ccc(CCNC(=O)CCS(=O)(=O)c2ccc(Br)cc2)cc1,.,247,-5,.,.,i,0.94
COc1cc2cc(/C=C/C(=O)c3ccco3)c(Cl)nc2cc1OC,-2.4,102,-7,21,68,i,0.98
CCS(=O)(=O)n1nc(-c2ccccc2)nc1N,0.9,107,2,0,117,i,0.98
O=C(COC(=O)c1ccccc1NC(=O)c1ccco1)NCCC1=CCCCC1,-0.7,102,-9,3,105,i,1
CC(=O)OCc1c(C(F)(F)F)nn(C)c1SCc1ccc(Cl)cc1,-2.6,106,-6,-24,117,i,1
Cc1ccc(/C=C2/NC(=O)N(Cc3ccccc3)C2=O)s1,0.3,100,-10,.,.,i,1
COc1ccccc1OCC(=O)/C=C1/N(C)c2ccccc2C1(C)C,.,102,7,.,.,i,0.99
O=C(CCCc1ccccc1)Nc1ccccn1,.,95,-3,29,107,i,0.97
CCOC(=O)C1=C(c2ccccc2)NC(SCC(=O)Nc2ccc(C)cc2)=C(C#N)C1c1ccco1 (stereo not drawn),-0.3,75,-5,31,111,i,1.1
O=C(COc1ccc([N+](=O)[O-])cc1Cl)Nn1cnnc1,.,121,.,.,.,i,0.85
CC1CCCCC1NC(=O)C(Cc1ccccc1)NS(=O)(=O)c1cccs1 (stereo not drawn),-1.1,70,-2,-61,40,i,1.1
COc1ccc(NC(=O)c2cc(Cl)ccc2NC(=O)c2ccco2)c(OC)c1,-0.8,2,-1,3,87,i,0.91
COC(=O)c1sccc1NC(=O)C1C2C=CC(C2)C1C(=O)O (stereo not drawn),-2.2,107,-5,29,103,i,0.76
O=Cc1c(-c2ccccc2)nc2ccccn12,.,82,.,.,.,i,1.1
CC1(C)Cc2c(sc3[nH]c(=S)n(Cc4ccco4)c(=O)c23)CO1,-1.6,53,-4,36,125,i,1.1
CCOCC(=O)Nc1c(C)n(C)n(-c2ccccc2)c1=O,.,107,-6,.,.,i,0.96
O=C(CSc1nccc(=O)[nH]1)NCc1ccco1,.,97,.,.,.,i,1
O=[N+]([O-])c1c(NCCO)cc(N2CCCCC2)c2nonc12,.,107,-7,-29,130,i,0.93

# Some of these compounds in order of their number in GALR2 agonist, highest first:
compound,GALR2 agonist,RGS16-Gao,PKD1 kinase inh,HSV augment,HSV augment primary fold
CCS(=O)(=O)n1nc(-c2ccccc2)nc1N,0.9,107,2,i,0.98
CCOC(=O)c1csc(NC(=O)c2cc(OC)c(OC)c(OC)c2)n1,-0.3,102,0,i,1
COc1ccc(NC(=O)c2cc(Cl)ccc2NC(=O)c2ccco2)c(OC)c1,-0.8,2,-1,i,0.91
O=C(Oc1cc(=O)n2ccccc2n1)c1ccccc1,-1.1,104,-8,i,0.92
O=C(NCCc1nc2ccccc2[nH]1)/C(=C/c1ccc2c(c1)OCO2)NC(=O)c1ccccc1,-1.2,71,5,i,1.1
O=c1cc(O)nc(SCc2ccccc2)[nH]1,-1.5,104,-7,i,0.84

# Continued:
SMILES,GALR2 agonist,RGS16-Gao,PKD1 kinase inh,INS promoter inh,INS promoter inh cell count,HSV augment,HSV augment primary fold
Cc1cccc(N(C)C(=S)Oc2ccc3ccccc3c2)c1,-1.2,100,-9,5,115,i,0.93
CN1C(=O)C(O)(CC(=O)c2ccccn2)c2cc(Br)ccc21 (stereo not drawn),-1.7,102,-12,19,97,?,.
CCc1c(C)c(C#N)c2[nH]c3ccccc3n2c1=S,.,95,.,.,.,i,1.2
CC(=O)NC1C(=O)N=C(SCC(=O)Nc2cccc(Cl)c2)NC1=O (stereo not drawn),.,113,-2,45,105,i,0.84
COc1cccc(C(=O)NCc2ccc3[nH]c(C)cc3c2)c1,.,103,1,-28,130,i,1
C=C(C)CSc1nnc2[nH]c(=O)cc(N)n12,-0.8,.,-9,31,68,i,1
COc1ccc(/C=N/Nc2nccnc2Cl)c(OC)c1,.,104,-6,.,.,i,0.85
CCC(C)C(NC(=O)C1CCC(C)CC1)C(=O)NC1CCN(Cc2ccccc2)CC1 (stereo not drawn),.,106,-5,.,.,i,0.77
Cc1nc(NC(=O)c2ccccc2)sc1-c1csc(Nc2cccc(F)c2)n1,-2.3,107,-7,16,175,i,0.83
COc1ccccc1C(=O)Nc1c(C)cc(Br)cc1C,.,94,2,-47,86,i,1.1
CCCCC(=O)NC(NC(=S)N1CCCCCC1)C(Cl)(Cl)Cl (stereo not drawn),-0.4,103,-10,-54,143,i,0.94
CCCNC(=O)NC(=O)CSc1nnc(C)n1N,-3.0,97,-7,3,157,i,1
Cc1ccc2c(Cl)cc(Cl)c(OCC(=O)NCCc3ccccn3)c2n1,.,100,-8,.,.,i,0.81
CCN(CC(N)=O)S(=O)(=O)c1ccc(Br)cc1,-1.9,101,-8,-52,138,i,1
Cc1cc(C)n(-c2cccc(F)n2)n1,.,103,-2,13,123,i,0.96
CN(C)c1ccc(C(CN)c2c[nH]c3ccccc23)cc1 (stereo not drawn),.,105,-5,-56,49,i,0.96
COc1ccc(OC)c2sc(NNC(=O)C3COc4ccccc4O3)nc12 (stereo not drawn),.,100,-1,2,86,i,0.98
CCN(CC)S(=O)(=O)c1cc(Br)ccc1OC,-0.7,85,-4,.,.,i,1.1
Cn1c(CCN2CCN(c3ccccc3)CC2)nc2cc(NC(=O)c3ccco3)ccc21,-0.6,100,-12,.,.,.,.
CCCC/C(O)=C/c1nc2ccccc2[nH]c1=O,-1.4,89,-11,-7,147,i,1.1
O=C(N/N=C/c1ccccn1)c1cc(-c2ccncc2)nc2ccccc12,-0.5,104,3,-31,138,i,0.72
O=C(c1ccccc1F)N1CCCC(c2ccccc2)C1 (stereo not drawn),-2.1,102,-3,-3,132,i,1
C/C(=C\c1ccccc1)C(=O)N1CCN(c2cccc(C(F)(F)F)c2)CC1,-0.3,119,-12,24,176,i,0.94
CCCCCn1c(CN2CCN(c3cc(Cl)ccc3C)CC2)nc2c1c(=O)[nH]c(=O)n2C,-0.2,102,-10,18,93,i,0.57
CN1CCN(c2ccccc2NC(=O)c2cccc(OCc3ccccc3)c2)CC1,-2.0,97,-8,-41,81,i,0.79

# Sorted by count of non-hydrogen atoms (lowest first): 4 of the compounds above
SMILES,GALR2 agonist,RGS16-Gao,PKD1 kinase inh,INS promoter inh,INS promoter inh cell count,HSV augment,HSV augment primary fold
Cc1cc(C)n(-c2cccc(F)n2)n1,.,103,-2,13,123,i,0.96
CN(C)c1ccc(C(CN)c2c[nH]c3ccccc23)cc1 (stereo not drawn),.,105,-5,-56,49,i,0.96
CCCCC(=O)NC(NC(=S)N1CCCCCC1)C(Cl)(Cl)Cl (stereo not drawn),-0.4,103,-10,-54,143,i,0.94
CCCCCn1c(CN2CCN(c3cc(Cl)ccc3C)CC2)nc2c1c(=O)[nH]c(=O)n2C,-0.2,102,-10,18,93,i,0.57

# Next records follow:
SMILES,GALR2 agonist,RGS16-Gao,PKD1 kinase inh,INS promoter inh,INS promoter inh cell count,HSV augment,HSV augment primary fold
CCOC(=O)c1cc(-c2ccccc2)sc1NC(=O)COC(=O)c1ccc(Cl)c(S(N)(=O)=O)c1,.,102,-5,-67,34,i,0.99
Cc1cc(C)c2[nH]c(O)c(N=NC(=O)c3cc4c(s3)CCCC4)c2c1,-1.3,102,-5,-57,130,i,0.95
CC(=O)c1ccc(C(C)(C)c2ccc(C(C)=O)s2)s1,-0.5,104,-2,-14,82,i,0.9
Cc1cc(NS(=O)(=O)c2ccc(NC(=O)Nc3ccc4c(c3)OCO4)cc2)no1,-2.2,107,-11,-7,112,i,1
CCC(C)C(NS(=O)(=O)c1ccc(C)cc1)C(=O)Oc1ccc2c3c(c(=O)oc2c1)CCC3 (stereo not drawn),-1.8,103,-4,.,.,i,0.97
CCCN=CC1=C(O)CC(c2ccccc2)CC1=O (stereo not drawn),-1.1,106,1,19,168,i,0.95
c1ccc(-c2ccc3nnnn3n2)cc1,.,98,.,.,.,i,1.1
CCCc1cc2c(cc1NC(=O)c1ccco1)OCO2,.,100,-4,.,.,i,1.1
CC(C)C(=O)N(c1cc2sc(=O)oc2c2ccccc12)S(=O)(=O)c1cccs1,-0.7,104,3,-22,96,i,0.89
O=C(NCc1cccnc1)Nc1ccccc1,.,109,-3,.,.,i,0.85
O=C1c2cccc3cccc(c23)C(=O)N1c1ccncc1,-1.5,33,-5,58,125,i,1
CCCNC(=O)Cn1nc(C(F)(F)F)c2c1CCCC2,-1.1,110,-13,-23,103,i,0.84
CC1CCCC(C)N1S(=O)(=O)c1ccc(NC(=O)CNCC2CCCO2)cc1 (stereo not drawn),1.2,101,-3,36,71,i,0.81
CC(=O)SCCC(=O)N1C(C)CCCC1C(=O)O (stereo not drawn),-2.5,96,-6,.,.,i,0.97
Cc1ccc(Cl)cc1N1CCN(CC(=O)NC2CCCc3ccccc32)CC1 (stereo not drawn),-0.2,100,8,-21,64,i,1
